Six1-Eya2 blk – blocks human Six1 binding to Eya2; Q15475+O00167; activity change, % (concentration not given with the values); AlphaScreen GST-Six1/His-Eya2 binding, biochemical; hits give low values; control for the full effect not named in the record; actives 0.56% (n = 360,000); in the data active = activity change below about -65%; inconclusive = about -30% to -65%; inactive = above about -30%; note: % is set by controls: 0 for no effect and ±100 for the full control effect
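AlphaScreen luminescence read after one hour at 37 °C in darkness. Pin-transferred compounds met GST-Six1 and His-Eya2 protein (5X stock 250 nM/500 nM) plus glutathione donor and Ni-chelate acceptor beads (5X, 50 ug/mL).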
TRPML1 agonist – activates the human TRPML1 channel; AID 624414; Q9GZU1; TRPML1-expressing cells, Ca2+ dye fluorescence, FDSS; host cell line not named in the record; reference of the full effect not given here; activation, % (test concentration not listed); actives 0.12% (n = 410,000); in the data active = activation above about 50%; inconclusive = about 30% to 50%; inactive = below about 30%; note: 0% is about no effect; the text of the record puts the active cut at 80%
Target sequence (Q9GZU1 whole entry, looked up): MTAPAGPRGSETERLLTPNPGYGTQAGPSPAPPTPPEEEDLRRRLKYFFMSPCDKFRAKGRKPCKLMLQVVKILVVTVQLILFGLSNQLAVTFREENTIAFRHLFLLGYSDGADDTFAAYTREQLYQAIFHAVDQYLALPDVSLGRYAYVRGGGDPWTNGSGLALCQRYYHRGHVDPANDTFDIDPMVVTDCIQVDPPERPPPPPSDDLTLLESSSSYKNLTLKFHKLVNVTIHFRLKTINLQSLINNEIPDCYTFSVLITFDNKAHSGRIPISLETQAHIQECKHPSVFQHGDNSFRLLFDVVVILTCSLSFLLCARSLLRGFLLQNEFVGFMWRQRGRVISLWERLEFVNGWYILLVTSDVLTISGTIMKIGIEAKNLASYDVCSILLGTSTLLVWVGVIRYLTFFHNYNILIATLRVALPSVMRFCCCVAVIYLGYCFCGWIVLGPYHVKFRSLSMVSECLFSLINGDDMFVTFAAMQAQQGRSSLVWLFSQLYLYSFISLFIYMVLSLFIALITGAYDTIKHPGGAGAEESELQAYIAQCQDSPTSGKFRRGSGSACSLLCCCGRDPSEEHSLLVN
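Cells: TRPML1-DL, 1X Tet inducer, ~16 h at 37 degrees C/5% CO2. Dye: ABD Ca8 no-wash + quencher, 45-90 min RT. Read: 10 s baseline, compound add, 110 s agonist phase; 54-4 EC80 (4uM final), 110 s antagonist phase.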
TRPML1 inh – blocks the human TRPML1 channel; activity change, negative = inhibition, % (no concentration beside the values); Q9GZU1; TRPML1-inducible cells, Ca2+ dye fluorescence, FDSS; hits give low values; inhibition of EC80 agonist-evoked calcium signal; actives 0.02% (n = 390,000); in the data active means activity change below about -50%; inconclusive means about -30% to -50%; inactive means above about -30%;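 note: stimulus is agonist 54-4 at its EC80 concentration; % is set by controls: 0 for no effect and ±100 for the full control effect; compound concentration not given in the record; the text of the record puts the active cut at -80%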
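Calcium fluorescence in TRPML1-DL cells induced overnight with Tet: a 110 s read after compound pin addition, then a 110 s antagonist read after challenge with 54-4 at 4 uM final (EC80).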
D2 ag – agonists of human D2 dopamine receptor (beta-arrestin). AID 624465. activation, % (test concentration not listed). actives 0.084% (n = 360,000). P14416. DiscoveRx PathHunter D2 beta-arrestin, luminescence, 90 min; 100% = 57 uM dopamine signal; in the data active = activation above about 40%; inconclusive = about 15% to 40%; inactive = below about 15%; note: compound concentration not given in the record; the text of the record calls up to 30% inactive
Target sequence (P14416 whole entry, looked up): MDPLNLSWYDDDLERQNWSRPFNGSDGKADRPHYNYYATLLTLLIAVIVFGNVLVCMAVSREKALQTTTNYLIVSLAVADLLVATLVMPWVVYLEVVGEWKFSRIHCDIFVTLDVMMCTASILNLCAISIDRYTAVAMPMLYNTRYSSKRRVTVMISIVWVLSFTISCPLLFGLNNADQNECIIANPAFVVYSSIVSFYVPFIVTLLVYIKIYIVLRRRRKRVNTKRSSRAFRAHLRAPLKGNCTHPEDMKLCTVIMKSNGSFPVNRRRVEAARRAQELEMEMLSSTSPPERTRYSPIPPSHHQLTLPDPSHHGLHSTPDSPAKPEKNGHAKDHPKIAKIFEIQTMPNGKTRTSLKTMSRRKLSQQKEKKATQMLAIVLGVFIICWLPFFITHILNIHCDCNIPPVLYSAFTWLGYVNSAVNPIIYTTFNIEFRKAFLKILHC
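Agonist mode: compounds alone added to overnight-plated D2 PathHunter cells for 90 min at 37 C, with 57 uM final dopamine (EC100) defining full response. Beta-arrestin recruitment detected by chemiluminescent reagent, read after 1 h at ambient temperature.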
D2 potentiator – human D2 receptor positive allosteric modulation; P14416; DiscoveRx D2 beta-arrestin cells, luminescence, 90 min; 100% = 57 uM dopamine signal; potentiation, % (concentration not given with the values); actives 0.23% (n = 360,000); AID 624464; active = potentiation of 50% or more; inconclusive = 30% to 50%; inactive = 30% or less;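 note: compound concentration not given in the record; tested on top of an EC20 dose of dopamine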
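D2 cells co-treated with compound plus 50 nM dopamine (EC20) for 90 min at 37 deg C to detect potentiation. Beta-arrestin recruitment was read as enzyme-fragment luminescence after 1 h at ambient temperature. Full response was set by 57 uM dopamine.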
PINK1 modulator – changes PINK1 expression | PINK1 immunofluorescence, high-content cytometry, 24 h | actives 0.2% (n = 410,000) | AID 624263 | Potency, µM (top dose mostly 76.6 µM), without a hit: at the highest dose activation (PINK1 increase), most hits filed as activators; active = well fitted activation curve with a large enough effect; inconclusive = small, poorly fitted or top-dose-only effect; inactive = flat fitted curve, though single readings scatter; cell line not stated here;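 note: potency is the fitted concentration of half-maximal effect; % of control where 0% means no effect; nearly all actives have a fitted effect of over 65% in size; a mitochondrial uncoupler was the plate control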
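Stable cell line, 250 cells/well, 12 h attachment; compounds pinned at 5 concentrations, 24 h; CCCP control. Fixed with nuclear dye, primary antibodies 12 h at 10 degrees C, secondary plus cell stain; laser-scanning cytometer read.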
The depositor's hits bear a star; ? = inconclusive; · = no result given; & = joins results of further samples; [ ] = remark or other dose. Rows are unselected. About 1% of those tested had a hit in this group.

SMILES	Six1-Eya2 blk	TRPML1 agonist	TRPML1 inh	D2 ag	D2 potentiator	PINK1 modulator
O=C(CN1CCCCC1)Nc1cccc2c1OCO2	16	-0.1	6	-0.5	-5	-1.1%
CCCCCNc1nc2ccccc2nc1NS(=O)(=O)c1cccs1	12	-0.3	-5	-1.0	-26	-0.3%
COc1ccc(CCNC(=O)CN2C(=O)NC3(CCCCC3C)C2=O)cc1 (configuration not stated)	-4	0.3	-3	0.4	-7	-0.2%
CC(C)CN(C(=O)COC(=O)Cc1c[nH]c2ccccc12)c1c(N)n(Cc2ccccc2)c(=O)[nH]c1=O	3	-0.1	-2	2.9	12	0.5%
Cc1cc(C)n(-c2nc(Nc3ccccc3)nc(-n3nc(C)cc3C)n2)n1	-28	0.4	15	2.3	-6	-3.7%[38.3 µM]
Cc1ccc(Cl)cc1NC(=S)NN	-5	2.3	6	-3.4	-10	4.7%
COCCN1C(=O)/C(=C/c2ccc(OCc3ccc(C(=O)O)cc3)c(OC)c2)SC1=Nc1ccccc1	0	2.4	25	2.7	-7	-0.9%
Cc1c(S(=O)(=O)Nc2ccc(Oc3ccccc3)cc2)c(=O)n(C)c(=O)n1C	0	-0.2	-2	-6.2	-8	-0.7%
CCOc1ccc(NC(=O)CN2C(C(=O)OC)=C(c3ccccc3)c3cc(Cl)ccc3S2(=O)=O)cc1	·	0.3	-8	·	·	5.4%
Cc1ccccc1NC(=O)COC(=O)c1ccc(S(=O)(=O)N2CCCCCC2)cc1	1	-0.3	7	-4.3	-12	2.6%
N#C/C(=C\c1cccs1)C(=O)NCC1CCCO1 (configuration not stated)	6	-0.1	-12	-1.6	-2	-1.3%
CCOCCCn1c(SCC(=O)NC2CCCC2)nc2ccccc2c1=O	5	0.8	8	3.5	-1	0.5%
CC#CC[N+](C)(C)CCCCCCCC	9	-0.1	11	2.9	-3	-0.4%
Cc1ccc2oc(C(=O)Nc3nnc(CC(C)C)s3)cc(=O)c2c1	·	-0.4	13	·	·	0.7%
CC1CCc2c(nc3nc[nH]n3c2=O)C1 (configuration not stated)	22	-0.1	18	-0.1	5	1.1%
CNC(=O)C1Cc2ccccc2CN1S(=O)(=O)c1ccc(OC)c(OC)c1 (configuration not stated)	0	0.1	20	-0.1	-3	-0.5%
CCC(=O)N1CCc2cc(S(=O)(=O)CCC(=O)N3CCN(c4ccc(C(C)=O)cc4)CC3)ccc21	0	-1.0&-0.6	14&5	2.0	-11	-1.2%&0.1%
COc1ccc(C(=O)C2CCN(C(=O)c3ccc(F)cc3)CC2)cc1	-16	-1.1	12	-2.5	-13	-1.3%
CN1C(=O)c2ccccc2Sc2ccc(NC(=O)N3CCN(c4ccccc4)CC3)cc21	·	1.7	3	·	·	0.5%
O=S(=O)(Nc1cccc2[nH]ncc12)c1cccs1	-5	0.6	-1	-4.2	-1	-0.6%
Cc1ccc(CN(C)C[C@@H]2OCc3cnnn3CCCC(=O)N([C@@H](C)CO)C[C@H]2C)cc1	-1	-0.3	31	-3.6	-3	1.2%
Brc1ccccc1Cn1c(-c2cscn2)nc2ccccc21	-1	4.2	18	-0.7	-7	1.7%[38.3 µM]
C=CCN1C(=O)N(c2ccccc2)C(=O)C1CC(=O)Nc1ccc(OC)cc1 (configuration not stated)	35	-0.4	-17	8.4	-9	-1.4%
CC1(C)C(=O)Nc2ccccc2N1C(=O)COc1ccc(C#N)cc1	-9	2.5	-12	-0.5	-2	-0.1%
O=C(NCCCN1CCOCC1)c1cc(-c2ccco2)nc2ccccc12	-23	0.8	7	12	-5	2.5%

Reformatted: four of the compounds above
> CCOc1ccc(NC(=O)CN2C(C(=O)OC)=C(c3ccccc3)c3cc(Cl)ccc3S2(=O)=O)cc1
  Six1-Eya2 blk = · | TRPML1 agonist = 0.3 | TRPML1 inh = -8 | D2 ag = · | D2 potentiator = · | PINK1 modulator = 5.4%

> Cc1ccccc1NC(=O)COC(=O)c1ccc(S(=O)(=O)N2CCCCCC2)cc1
  Six1-Eya2 blk = 1 | TRPML1 agonist = -0.3 | TRPML1 inh = 7 | D2 ag = -4.3 | D2 potentiator = -12 | PINK1 modulator = 2.6%

> N#C/C(=C\c1cccs1)C(=O)NCC1CCCO1 (configuration not stated)
  Six1-Eya2 blk = 6 | TRPML1 agonist = -0.1 | TRPML1 inh = -12 | D2 ag = -1.6 | D2 potentiator = -2 | PINK1 modulator = -1.3%

> CCOCCCn1c(SCC(=O)NC2CCCC2)nc2ccccc2c1=O
  Six1-Eya2 blk = 5 | TRPML1 agonist = 0.8 | TRPML1 inh = 8 | D2 ag = 3.5 | D2 potentiator = -1 | PINK1 modulator = 0.5%

Going on with the list:
SMILES	Six1-Eya2 blk	TRPML1 agonist	TRPML1 inh	D2 ag	D2 potentiator	PINK1 modulator
Cc1cccc2c(=O)c(C(=O)NCCc3ccccc3)c[nH]c12	6	0.0	-4	-2.1	-4	2.8%
COc1ccc(C(C(=O)NCC2CCCO2)N(Cc2cccs2)C(=O)c2snc(C(N)=O)c2N)cc1 (configuration not stated)	2	0.1	1	6.8	12	3.3%
CCOCCCn1c(C)nc2c(c1=O)c1nc3ccccc3nc1n2-c1ccc(C)cc1	-7	-0.2	10	2.3	-1	-1.8%[38.3 µM]
NC(=O)c1ccc(-c2ccc(N3C(c4ccsc4)=Cc4ccc(F)cc4C3CC(=O)c3ccco3)cc2)cc1 (configuration not stated)	-10	-0.1	·	·	·	1.4%
CNC[C@@H]1Oc2c(NC(=O)Nc3ccccc3)cccc2C(=O)N([C@@H](C)CO)C[C@H]1C	-4	-0.5	-4	0.2	-7	2.1%
COc1ccc(CCNC(=O)CCN2C(=O)COc3ccc(C)cc32)cc1OC	2	0.1	-2	1.4	-4	-1.2%
O=C(O)C1Cc2ccccc2CN1C(=O)c1ccccc1Cl (configuration not stated)	1	-0.7	10	-6.2	-9	1.6%
COC(=O)C1=NN(C(=O)c2ccc(Br)cc2)C(O)(C(C)(C)C)C1 (configuration not stated)	-1	2.3	0	-4.1	-7	-0.2%
COc1cc(C)ccc1OCCOc1c(C)cc(Cl)cc1Cl	18	0.2	7	0.0	10	25%
O=C(O)c1cccc(S(=O)(=O)Nc2ccc(O)cc2Sc2nc3ccccc3s2)c1	3	1.6	27	2.4	7	2.5%
CCOc1ccccc1NC(=O)CN(c1ccc(OC)cc1OC)S(=O)(=O)c1ccccc1[N+](=O)[O-]	0	0.5	4	0.6	-8	5.8%
Oc1c(Br)cc(Br)cc1CNc1cnc2ccccc2c1	-6	2.2	63	-6.1	-4	?
COc1cc(C2C(C(=O)c3cccs3)=C(O)C(=O)N2c2cc(C)on2)ccc1O (configuration not stated)	0	1.0	-4	-3.9	-6	3.0%
Cn1cc(CNC(=O)c2ccc3nc(Cc4ccccc4F)oc3c2)cn1	4	-0.1	4	-3.7	-3	0.1%
NC(=O)C1(N2CCCCC2)CCN(C(=S)Nc2ccc(F)c(Cl)c2)CC1	4	0.0	37	-3.1	-5	0.0%
O=S(=O)(c1ccc2nc(Nc3ccc(Br)cc3F)ccc2c1)N1CCCC1	·	2.9	-15	·	·	1.5%
N#Cc1cc(-c2ccccc2)nnc1Oc1ccccc1	-4	0.1	-1	-0.2	-7	5.7%
NNC(=O)c1ccc(COc2cccc3ccccc23)cc1	1	0.7	-21	2.2	26	2.3%
CNc1ccc([N+](=O)[O-])cc1C(=O)O	2	0.2	0	2.9	-8	0.1%
CCC(C(=O)NCCC(C)C)n1ccc2cc(S(=O)(=O)N3CCCCC3)ccc21 (configuration not stated)	-1	0.2	12	-4.0	-6	0.4%
CCCCC(SCC(=O)Nc1ccccc1)C(=O)O (configuration not stated)	13	-0.6	24	-2.2	1	-0.2%
COc1ccc(CN2C(=O)NC3(CCCC3)C2=O)cc1F	6	-0.6	7	-2.0	-3	1.4%
O=C1N=C(N2CCCCC2)S/C1=C\c1ccccc1F	3	0.0	-5	-1.3	-19	-0.1%
CCOC(=O)C1(C)CCCN(C(=O)c2ccc(OC(F)F)cc2)C1 (configuration not stated)	0	-0.6	·	-3.0	1	-0.4%
O=C(O)c1ccccc1OCCN1CCCC1=O	-8	0.5	-19	-3.3	-15	1.4%
SMILES	Six1-Eya2 blk	TRPML1 agonist	TRPML1 inh	D2 ag	D2 potentiator	PINK1 modulator
CCc1nnc(NC(=O)CSc2nccn2Cc2ccc(C)cc2)s1	·	1.6	14	·	·	1.2%
CNC(=S)NC12CC3CC(CC(C3)C1)C2	7	-1.1	-10	-0.4	-7	-0.4%
CCCCCn1c(=O)[nH]c2cc(C(=O)N3CCN(c4ccccc4)CC3)ccc2c1=O	·	0.1	2	·	·	2.0%
O=C(CN1C(=O)/C(=C2\SC(=S)N(C3CCS(=O)(=O)C3)C2=O)c2ccccc21)Nc1ccccc1 (configuration not stated)	-19	-0.4	-9	-2.8	9	2.6%
CC(C)C[C@@H]1CN(CCCC[C@H]2CNC(=O)C(=O)N2CCC2CCCCC2)C(=O)C(=O)N1CCc1ccc(O)cc1	-10	-0.4	·	·	·	0.1%
Cc1cc(NC(=O)CN2C(=O)NC(C)(c3ccc(Cl)cc3)C2=O)no1 (configuration not stated)	0	4.4	-11	-4.3	-14	-0.1%
Cc1ccc(-c2nnn3c2nc(N2CCC(C)CC2)c2ccccc23)cc1	·	-0.6	3	·	·	1.3%
CCOc1ccc(NC(=O)CCN2C(=O)c3cccc([N+](=O)[O-])c3C2=O)cc1	-8	·	·	11	-4	0.7%
O=C1c2cccnc2C(O)N1Cc1ccc(F)cc1 (configuration not stated)	-2	0.7	22	-4.2	-6	-3.0%[38.3 µM]
CCOC(=O)C1=CCN(S(=O)(=O)c2ccccc2Cl)C1c1ccccc1 (configuration not stated)	3	0.8	15	-1.4	-7	4.5%
CC1CCCN(C(=O)c2cc3c(=O)n4ccccc4nc3s2)C1 (configuration not stated)	14	0.5	0	-2.2	-3	0.4%
C/C(=N\NC(=O)CN1CCCCC1)c1ccccc1O	-22	0.1	20	9.5	-19	0.9%
O=C(Cc1ccccc1)Nc1ccc(-c2nnc(-c3ccco3)o2)cc1	0	0.0	3	-1.5	5	0.7%
O=C(CCN1C(=O)/C(=C/c2ccc(F)cc2)SC1=S)N[C@@H](CO)Cc1ccccc1	-3	0.8	32	-0.3	-4	0.8%
c1ccc(-c2nccc(-c3ccc4c(c3)OCO4)n2)cc1	9	0.7	-9	-0.6	-4	5.2%
CCCN1C2CCCC1CC(NC(=O)c1cccc([N+](=O)[O-])c1)C2 (configuration not stated)	-12	-1.0	10	-3.0	-10	2.4%
COc1ccccc1NC(=O)Cn1cnc2c(nnn2-c2ccc(C)cc2)c1=O	7	0.1	2	-5.2	-2	-0.4%
C=CCNC(=S)N1CCN(CCNC2=CC(=O)CC(C)(C)C2)CC1	2	-0.4	3	-9.2	-10	-2.1%
O=C(Nc1ccc(NC(=O)c2cccs2)cc1)c1cccnc1	-11	0.3	8	-4.8	-3	10%
CC(C)(C)C(=O)Nc1c2c(nc3c1CCC3)CCCC2	3	0.8	-12	-0.2	1	0.1%
CCOc1ccc(N(CC(=O)Nc2ccc(C)cc2)S(C)(=O)=O)cc1	3	-0.8	1	1.4	-8	-0.8%
C/C(=N\NC(=O)C(=O)Nc1c(C)n(C)n(-c2ccccc2)c1=O)c1ccncc1	2	-0.7	32	-0.6	-7	-1.0%

Compound activity: PubChem BioAssay, National Center for Advancing Translational Sciences (NCATS)
